Screening results deposited in PubChem BioAssay by National Center for Advancing Translational Sciences (NCATS).
AmpC nodet inh = inhibitors of E. coli AmpC beta-lactamase without detergent | P00811 | AmpC nitrocefin hydrolysis, absorbance 480 nm, no detergent; potencies from a single point are estimates | Potency, µM (doses to about 28.7 µM), for inactives: top-dose activity change, negative = inhibition | 1.8% of 71,000 active; active = falling curve, for most hits resting on a single point; inconclusive = weak or doubtful change; inactive = flat or rising curve; further: % of control where 0% means no effect; about half of the hits show no inhibition at the top dose; a quarter of the inactives give rising signals
Target sequence (P00811 whole entry, looked up): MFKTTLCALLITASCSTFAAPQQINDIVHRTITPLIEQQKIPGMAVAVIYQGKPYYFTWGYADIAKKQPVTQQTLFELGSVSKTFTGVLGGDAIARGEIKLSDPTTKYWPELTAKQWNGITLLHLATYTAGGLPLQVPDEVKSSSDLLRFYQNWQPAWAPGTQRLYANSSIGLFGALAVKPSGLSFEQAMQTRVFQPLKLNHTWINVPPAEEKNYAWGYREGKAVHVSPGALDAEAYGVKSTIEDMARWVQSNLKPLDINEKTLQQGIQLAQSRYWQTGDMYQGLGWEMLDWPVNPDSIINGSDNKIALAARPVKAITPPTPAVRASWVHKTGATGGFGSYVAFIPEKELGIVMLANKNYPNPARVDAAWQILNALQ
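AmpC in 20 mM phosphate buffer pH 7.0 was preincubated 15 min at room temperature with compounds. Nitrocefin (800 uM stock) was then added and hydrolysis followed at 480 nm every 20 s for 4 min.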
Numbers without * were called inactive; ? = inconclusive; [ ] = remark or other dose. Potency means the concentration at half of the fitted maximal effect.

nr	Compound	AmpC nodet inh
1	CCCC(C)n1[nH]c(=O)c2c(C)cc(C)nc21 (centres undefined)	10%
2	O=C(Cn1ncc2c(=O)oc3ccccc3c21)N1CCN(C(=O)c2ccco2)CC1	5%
3	CCN(CC(=O)NC)S(=O)(=O)c1ccc(Br)cc1	5%
4	COc1cc(CC(=O)Nc2ccc(S(=O)(=O)N(C)C)cc2)cc(OC)c1OC	9%
5	COc1ccc(-n2c(C)nc3cc(C(=O)N4CCOCC4)ccc32)cc1	23%
6	O=C(c1cnccn1)N1CCC2(CCCN(c3ccncc3)C2)CC1	7%
7	Cc1cccc2cc(CN(CCCO)C(=O)Nc3ccccc3Cl)c(=O)[nH]c12	73%
8	O=C1NC(Nc2nccs2)(C(F)(F)F)C(=O)N1CCc1ccccc1 (centres undefined)	-5%
9	O=C(CCCOc1ccc(Cl)cc1Cl)NCCCO	38%
10	COC(=O)c1ccccc1NC(=O)c1cc(OC)cc(OC)c1	17%
11	Nc1cc(N)cc(-c2nc3ccccc3[nH]2)c1	-16%
12	O=C(CN1CCC(n2nnc3cc(F)ccc32)CC1)NCCc1nc2ccccc2[nH]1	75%
13	Cc1oc2c(c1C(=O)NCc1ccccc1)CCCC2	-8%
14	CCOC(=O)C1CCCN(C(=O)Cn2cccc2C(=O)c2ccccc2)C1 (centres undefined)	36%
15	COc1cc(NS(=O)(=O)c2ccc3c(c2)oc(=O)n3C)cc(OC)c1OC	12%
16	CCN(CC)c1nc(N(CC)CC)[nH]c(=O)n1	0%
17	C/C=C/C=C/C=O	-5%
18	C=CCn1c(C(C)NC(=O)COC)nc2ccccc21 (centres undefined)	-9%
19	O=c1cnc2cnc(N3CCOCC3)nc2n1Cc1ccc(F)cc1	26%
20	Fc1ccc(C(c2nnnn2Cc2ccco2)N2CCN(C3CCCCC3)CC2)cc1 (centres undefined)	4%

nr	Compound	AmpC nodet inh
21	O=C(O)c1[nH]c2ccccc2c1NS(=O)(=O)Cc1ccccc1	-12%
22	COCCCN(C(=O)Nc1ccccc1)C(C)c1ccncc1 (centres undefined)	0%
23	O=C(CSc1nc2ncccc2[nH]1)Nc1ccc2c(c1)OCCO2	-17%
24	CNC[C@H](O)c1ccc(O)cc1	-12%[12.8 µM]
25	Cc1ccc(-c2noc(C3CCN(C(=O)Nc4ccc(C#N)cc4)CC3)n2)o1	6%
26	CCOC(=O)Nc1c(O)ccc2oc(C)c(-c3ccccc3)c12	15%
27	CS[C@@H](CC(=O)O)C(=O)O	13%[5.75 µM]
28	CCC(Sc1nc(C)cc(=O)[nH]1)C(=O)Nc1nc2c(s1)CCCC2 (centres undefined)	-13%
29	CCOC(=O)c1c(-c2ccccc2)oc2ccc(OC(=O)N(C)C)cc12	105%
30	NC(=O)c1ncn([C@@H]2O[C@@H](CO)[C@@H](O)[C@H]2O)c1O	-6%
31	CCOC(=O)C1C(=O)NC23CCCC2C1c1ccccc1O3 (centres undefined)	7%
32	C(=N\n1cncn1)/c1ccc(N2CCOCC2)cc1	-6%
33	COc1ccc(S(=O)(=O)NCCSc2ccccc2)cc1OC	-2%
34	CCCCC(C(=O)NCCC(C)C)N(CCCN1CCOCC1)C(=O)c1snc(C(N)=O)c1N (centres undefined)	55%
35	Brc1cccc(-c2nnc3sc(CN4CCCCC4)cn23)c1	23%
36	CN(CP(=O)(O)CCc1ccccc1)S(C)(=O)=O	-1%
37	NC(=O)c1ccccc1OCC(=O)NS(=O)(=O)c1ccccc1	-1%
38	CC(C)CCNC(=O)C(c1ccco1)N(Cc1cccs1)C(=O)Cn1nnc2ccccc21 (centres undefined)	15%
39	c1coc(-c2nc(-c3ccncc3)no2)c1	-5%
40	CCn1c(CNC(=O)C(C)(C)C)nc2ccccc21	8%

nr	Compound	AmpC nodet inh
41	O=C(O)CCSc1nc2ccccc2c(=O)[nH]1	-2%
42	CC1c2[nH]c3ccccc3c2CCN1C(=O)Nc1ccccc1 (centres undefined)	-7%
43	O=C(CSc1nnc(COc2ccc(F)cc2)o1)N1c2ccccc2CCc2ccccc21	-15%
44	CCOC(=O)C1CCN(C(=O)c2oc3ccc(S(=O)(=O)N4CC(C)CC(C)C4)cc3c2C)CC1 (centres undefined)	123%
45	O=C1CCCN1CCCNc1ncnc2c1[nH]c1ccccc12	-7%
46	Cc1cnc(NC(=O)CCCSc2nc3ccccc3s2)s1	13µM*
47	Cc1ccc(S(=O)(=O)N[C@H](C(=O)O)C(C)C)cc1	-2%[5.75 µM]
48	Nc1ccc2c(c1)ncn2CCCn1cnc2cc(N)ccc21	0%
49	CCOC(=O)CSc1nc2ccccc2c(=O)[nH]1	-5%
50	O=C(c1cc(C(F)(F)F)cc(C(F)(F)F)c1)N1CCC2(CC1)CCN(c1ncccn1)CC2	136%
51	CCCn1c(SCC(=O)Nc2sc(C)c(C)c2C(=O)OC)nc2c1c(=O)n(C)c(=O)n2C	2%
52	Cn1c(=O)c2c(nc(N3CCOCC3)n2Cc2c(F)cccc2Cl)n(C)c1=O	38%
53	CC(=O)c1cccc(NC(=O)CC2SC(N3CCCCC3)=NC2=O)c1 (centres undefined)	5%
54	Cc1ccc2oc(-c3ccco3)nc2c1	6%
55	COC(=O)c1ccccc1OP1(=O)COc2ccccc2OC1	6%
56	Cn1c(=O)[nH]c(=O)c2c1ncn2CCN1CCOCC1	1%
57	CCOC(=O)CSc1nnc(CNC(=O)c2ccc(S(=O)(=O)N3CCCCC3)cc2)n1C	50%
58	COc1ccc(CN/C=C2\CCCCC2=O)cc1	10%
59	CC12CCC(C(=O)NCc3ccccn3)(OC1=O)C2(C)C (centres undefined)	-1%
60	Cc1ccccc1-c1nccc(NCc2cccs2)n1	-4%

nr	Compound	AmpC nodet inh
61	O=C(CCS(=O)(=O)Cc1ccccc1)N1CCN(Cc2ccccc2)CC1	66%
62	COC(=O)NCC(c1cccnc1)N1CCN(c2ccccc2OC)CC1 (centres undefined)	56%
63	COc1ccc(Cl)cc1S(=O)(=O)n1nnc2ccccc21	5%
64	COCCNC(=O)CCCn1c(=O)c2ccccc2n(CC(=O)NCCC2=CCCCC2)c1=O	-10%
65	Cc1nc(SCc2ccccc2C)n[nH]1	7%
66	O=C(c1ccco1)N(Cc1nc2ccccc2c(=O)[nH]1)C1CCCC1	-11%
67	O=c1c2ccccc2nc2n1CCC2	-9%
68	Cc1ccccc1CN(c1ccc(C(N)=O)cc1)S(C)(=O)=O	4%
69	Cc1nc(-c2cccc(S(=O)(=O)N3CCOCC3)c2)cs1	22%
70	Cc1nc2c(C(=O)NCc3ccco3)cnn2c(C)c1Cc1ccc(F)cc1Cl	58%
71	Cc1nn(Cc2ccc(C(=O)Nc3nccs3)cc2)c(C)c1Cl	8%
72	O=C(NCCCN1CCN(CCCNC(=O)c2ccc3c(c2)OCO3)CC1)c1ccc2c(c1)OCO2	23%
73	CCOC(=O)c1cnn2c(C)cc(-c3ccc(F)cc3)nc12	58%
74	Cc1noc(C)c1C(=O)OCC(=O)NCCC1=CCCCC1	15%
75	O=c1n(CCCN2CCN(c3cccc(Cl)c3)CC2)nc2ccccn12	41%[12.8 µM]
76	Cn1c(CN2CCCCC2)nc2cc(NC(=O)c3cccs3)ccc21	-7%
77	CC(C)n1c(SCC(=O)NCc2ccco2)nc2c1c(=O)n(C)c(=O)n2C	5%
78	CCCc1cc(C(=O)NCc2ccccc2)no1	-12%
79	O=C(CSc1nnc(COc2cccc3cccnc23)o1)N1CCc2ccccc21	12%
80	COCCn1c(=O)c(-c2cccc(C#N)c2)nc2cnc(N3CCOCC3)nc21	11%

nr	Compound	AmpC nodet inh
81	O=C1Nc2cc(C(=O)N3CCOCC3)ccc2SC1N1CCOCC1 (centres undefined)	0%
82	CC(=O)Nc1ccc(C(=O)c2ccccc2)cc1	9%
83	Cn1c(=S)n(/N=C/c2ccc3c(c2)OCO3)c2ccccc21	-15%
84	C=CC(O)(C#CCN(CC)CC)c1ccccc1 (centres undefined)	4%
85	Cc1c(Cc2ccccc2)sc(N)c1C(N)=O	-11%
86	O=C(CCCN1C(=O)c2cccnc2C1=O)N1CC(=O)N(CCc2ccccc2)C(=O)C1	34%
87	Cc1cc(N2CCOCC2)nc2cc(O)ccc12	0%
88	Cc1c(Cl)cccc1NC(=O)Cn1cccc1	2%
89	C[As+](C)(c1ccc(Br)c([N+](=O)[O-])c1)c1ccc(Br)c([N+](=O)[O-])c1.O=[N+]([O-])O	3%[5.75 µM]
90	CCOCCOC(=O)C1=C(C)N(C)C(=O)NC1c1cc(Cl)c(O)c(OCC)c1 (centres undefined)	17%
91	O=C(Nc1ccccc1)N1CCn2c(nc3ccccc32)C1	12%
92	Cn1nnnc1SCC(=O)Nc1ccc(Oc2ccccc2)cc1	-11%
93	Nc1nc(-c2ccc3c(c2)OCCO3)cs1	-14%
94	C#CCn1cnc2c(cnn2-c2ccc(C)c(C)c2)c1=O	15%
95	[N-]=[N+]=Nc1ccc(C(=O)CSC[C@@H](NC(=O)CC[C@@H](N)C(=O)O)C(=O)NCC(=O)O)cc1	6%
96	COc1ccc(CCNc2oc(-c3ccc(OC)c(OC)c3)nc2C#N)cc1	60%
97	CN(C)c1ccc(-c2cncnc2-n2ccnc2)cc1	10%
98	COc1cccc(-c2ccc3ncnc(N4CCOCC4)c3c2)c1	?
99	N#CCCn1c(=O)c(CCc2ccccc2)nc2cnc(N3CCOCC3)nc21	11%
100	O=C(Cl)c1c(Cl)cccc1Cl	-6%

nr	Compound	AmpC nodet inh
101	c1ccc(N=P(N2CCOCC2)(N2CCOCC2)N2CCOCC2)cc1	-9%
102	O=C(CN1C(=O)C2CCCCN2C(=O)c2ccccc21)N1CCCc2ccccc21 (centres undefined)	50%
103	Cc1csc(NC(=O)c2cccc(Cn3nc(C)c(Br)c3C)c2)n1	45%
104	COC(=O)CSc1nnc(CNC(=O)c2cccc(C)c2)n1-c1ccccc1OC	23%
105	Cc1cccc(NC(=O)c2cc3c(n(-c4ccccc4)c2=O)CCCC3=O)n1	61%
106	Cn1c(=O)c2c(nc(CN3CCN(c4ccccc4)CC3)n2CCN2CCOCC2)n(C)c1=O	108%
107	O=c1[nH]c(-c2cccs2)nc2ccccc12	-15%
108	O=c1c(-c2cccs2)nc2cnc(N3CCOCC3)nc2n1Cc1cccs1	-3%
109	COP(=S)(OC)Oc1ccc(SC)c(C)c1	-9%
110	C=CCn1c(SCC(=O)c2cc(C)n(CC3CCCO3)c2C)nnc1-c1ccccc1 (centres undefined)	67%
111	O=C1c2ccccc2C(Cc2ccncc2)(Cc2ccncc2)c2ccccc21	17%
112	CN(C)CCOC(c1ccccc1)c1ccccc1 (tested in a mixture with another compound)	9%
113	O=C(Nc1nccs1)C12CC3CC(C1)CC(C(=O)Nc1nccs1)(C3)C2	-18%
114	CCCCOC(=O)c1ccc(NC(=O)C(CCS(C)(=O)=O)NC(C)=O)cc1 (centres undefined)	59%
115	CCN(CC)S(=O)(=O)c1cccc(-c2nnc(C(=O)c3ccc(C(F)(F)F)cc3)o2)c1	8%
116	COc1ccccc1NC(=O)Cn1cnc2c1c(=O)n(C)c(=O)n2C	-1%
117	O=C(c1ccccc1)N1CCCCC(S(=O)(=O)c2ccccc2)C1=O (centres undefined)	-3%
118	COC(=O)c1ccccc1NC(=O)NCC1CCCO1 (centres undefined)	2%
119	Cc1cc(NCCCN2CCOCC2)n2nc(C)c(-c3ccccc3)c2n1	120%
120	Cc1ncc(CSc2nnnn2-c2ccccc2)c(N)n1	-8%

nr	Compound	AmpC nodet inh
121	Cc1ccccc1CN1CCN(CC(=O)NCc2ccco2)C1=O	42%
122	O=C(CSc1nnc(-c2cccs2)n1-c1ccccc1)NCc1ccco1	-6%
123	CCC(=O)c1ccccc1OCCCN1C(=O)NC(C)(C)C1=O	7%
124	Cc1nc2ccccc2n1CC(O)Cn1c(C(F)(F)F)nc2ccccc21 (centres undefined)	15%
125	CCOCCn1c(CN(Cc2ccccc2)Cc2ccccc2)nc2c1c(=O)[nH]c(=O)n2C	127%
126	C[C@@H](C(=O)Nc1ccc2ccccc2c1)[C@H]1C[C@]1(C)[C@H](NS(=O)(=O)c1ccc(-c2ccccc2)cc1)c1ccccc1	5%

An excerpt, so the mix of outcomes need not match the whole.
